D2 ag – Beta-Arrestin HTS for Positive Allosteric Modulators of the Human D2 Dopamine Receptor: Agonists; DiscoveRx PathHunter D2 beta-arrestin, luminescence, 90 min; 100% = 57 uM dopamine signal; activation, % (concentration not given with the values); 360,000 compounds, 0.084% hits; in the data active = activation above about 40%; inconclusive = about 15% to 40%; inactive = below about 15%; also: the text of the record calls up to 30% inactive
Target sequence (P14416 whole entry, looked up): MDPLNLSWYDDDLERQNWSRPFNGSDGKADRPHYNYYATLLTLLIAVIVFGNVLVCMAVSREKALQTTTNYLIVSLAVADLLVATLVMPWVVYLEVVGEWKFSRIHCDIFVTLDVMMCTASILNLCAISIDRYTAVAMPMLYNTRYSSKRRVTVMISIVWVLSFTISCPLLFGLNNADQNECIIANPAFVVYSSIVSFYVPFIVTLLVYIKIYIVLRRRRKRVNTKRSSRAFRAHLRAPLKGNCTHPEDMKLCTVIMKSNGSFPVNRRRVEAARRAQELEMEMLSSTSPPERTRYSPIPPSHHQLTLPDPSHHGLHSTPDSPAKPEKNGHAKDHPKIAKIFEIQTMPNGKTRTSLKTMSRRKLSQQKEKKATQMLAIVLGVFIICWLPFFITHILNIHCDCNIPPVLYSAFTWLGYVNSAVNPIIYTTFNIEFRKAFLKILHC
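Agonist mode: compounds alone added to overnight-plated D2 PathHunter cells for 90 min at 37 C, with 57 uM final dopamine (EC100) defining full response. Beta-arrestin recruitment detected by chemiluminescent reagent, read after 1 h at ambient temperature.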
gsp antagonist – qHTS for Antagonists of gsp, the Etiologic Mutation Responsible for Fibrous Dysplasia/McCune-Albright Syndrome: qHTS; gsp-mutant cells, cAMP HTRF, 30 min; control for the full effect not named in the record; Potency, µM (highest dose often 76.9 µM), without a hit: at the top dose activity change, negative = inhibition, hits mostly inhibitors; 340,000 compounds, 0.4% hits; active = falling curve of any shape with a large fitted effect; inconclusive = falling curve, mostly with a smaller effect; inactive = flat or rising curve; cell line not stated here;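 also: intracellular cAMP measured with PDE inhibitor Ro 20-1724 present during compound exposure; potency is read from the fitted curve at half-maximal effect; % is scaled to controls: 0 for no effect and ±100 for the full control effect; nearly all actives have a fitted effect of over 65% in size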
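HTRF cAMP measurement after 30 min RT detection following 30 min, 37C compound treatment alongside […] (added as 300 uM solution) in G418-selected cells seeded at 2000/well and grown 16–24 h.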
PINK1 expr mod – A Quantitative High throughput Screen to Identify Chemical Modulators of PINK1 Expression; 410,000 compounds, 0.2% hits; PINK1 immunofluorescence, high-content cytometry, 24 h; Potency, µM (series often up to 76.6 µM), for the others: top-dose activation (PINK1 increase), hits mostly activators; active = well fitted activation curve with a large enough effect; inconclusive = small, poorly fitted or top-dose-only effect; inactive = flat fitted curve, though single readings scatter; cell line not stated here;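 also: potency is read from the fitted curve at half-maximal effect; % of control where 0% means no effect; nearly all actives have a fitted effect of over 65% in size; a mitochondrial uncoupler was the plate control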
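Fluorescence from anti-PINK1 antibody, together with nuclear and cell stains, was scanned on a laser-scanning cytometer. Before staining, stable-line cells were incubated 24 hours with compounds at 5 concentrations; primary antibody 12 h at 10 degrees C.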
Sfp PPTase inh – qHTS Assay for Inhibitors of Bacillus subtilis Sfp phosphopantetheinyl transferase (PPTase) | 4'-phosphopantetheinyl transferase ffp (Bacillus subtilis), Q9F4F7 | Biochemical Sfp PPTase activity, qHTS | Potency, µM, for the others: max response, negative = inhibition, actives largely listed as inhibitors | 310,000 compounds, 3.5% hits; active = well fitted inhibition curve with a large enough effect; inconclusive = small, poorly fitted or top-dose-only effect, or another doubt; inactive = no such curve, though single readings can be large or run the other way;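 also: the enzyme is Sfp with the accession as filed and its product quenches rhodamine fluorescence; potency is read from the fitted curve at half-maximal effect; 0% = enzyme reaction without inhibitor and -100% = no enzyme wells; top concentration of the series not given in the record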
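Step 1, compound plus 15 nM Sfp-PPTase, 15 min, room temperature. Step 2, add rhodamine-CoA (5 uM) and BHQ-2-YbbR (12.5 uM). Step 3, read 525/598 nm fluorescence at 0 and 30 min.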
ClpP mod – qHTS Assay for Activators of ClpP; Potency, µM (highest dose often 57.5 µM), without a hit: top-dose activity change, negative = active; ATP-dependent Clp protease proteolytic subunit (Bacillus subtilis (strain 168)), P80244; 340,000 compounds, 1.9% hits; purified B. subtilis ClpP, FRET peptide cleavage, 20 min; active = well fitted falling curve with a large enough effect; inconclusive = small, poorly fitted or top-dose-only effect; inactive = no such curve, though single readings can be large or run the other way; also: potency is read from the fitted curve at half-maximal effect; the source files actives as falling curves though it sought activators and does not explain the sign; nearly all actives have a fitted effect of over 65% in size; many hits overshoot -100%
Target sequence (P80244 whole entry, looked up): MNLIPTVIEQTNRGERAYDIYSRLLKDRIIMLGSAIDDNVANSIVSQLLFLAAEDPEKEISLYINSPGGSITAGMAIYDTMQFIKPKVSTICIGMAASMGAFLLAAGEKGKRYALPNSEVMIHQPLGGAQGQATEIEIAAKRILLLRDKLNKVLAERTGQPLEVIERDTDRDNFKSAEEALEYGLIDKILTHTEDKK
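FRET quenching reversal measured ClpP activation: 10 microg/mL B. subtilis ClpP at pH 8 with the FRET-FV decapeptide, read at 430 nm after 320 nm excitation. The 20-min minus 0-min signal was scaled between DMSO/no-enzyme wells and ADEP (5.8 microM final).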
Menin-MLL FL inh – qHTS Assay for Inhibitors Targeting the Menin-MLL Interaction in MLL Related Leukemias: Competition With Fluorescein Labeled MLL-derived Peptide. Fluorescence polarization, fluorescein-MLL peptide displacement from menin. FP activity change, % at 61.4 µM. 290,000 tested, under 10 active. AID 1766, 2009; inconclusive = falling polarisation curve, or a change in total fluorescence; inactive = total fluorescence flat and polarisation flat or rising; no compound was filed as active; the % refers to the polarisation; negative = inhibition;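 also: % of control where 0% means no effect; inhibitors lower the polarisation; unlabelled MLL peptide was the positive control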
gsp agonist – qHTS for Agonist of gsp, the Etiologic Mutation Responsible for Fibrous Dysplasia/McCune-Albright Syndrome: qHTS; gsp mutant cells, cAMP HTRF, 30 min; control for the full effect not named in the record; AID 624287, 2012; Potency, µM (titrated, usually from 76.9 µM), for the others: at the highest dose activation (cAMP increase), actives largely listed as activators; 340,000 compounds, 0.13% hits; active = well fitted activation curve with a large enough effect; inconclusive = small, poorly fitted or top-dose-only effect, or another doubt; inactive = no such curve, though single readings can be large or run the other way; cell line not stated here;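 also: phosphodiesterase inhibitor Ro 20-1724 added with compounds to block cAMP breakdown; potency is read from the fitted curve at half-maximal effect; nearly all actives have a fitted effect of over 60% in size; about a fifth of the inactives were tested at one dose only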
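Cells in DMEM/10% FBS with G418 were pretreated with compounds in DMSO plus […] (300 uM stock) for 30 min at 37C. cAMP was measured by HTRF (cAMP-d2 plus anti-cAMP antibody-K) after 30 min at room temperature.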
* hit, by the source's call; ? = inconclusive; nt = no result given; & = joins results of further samples; [ ] = another dose, or the depositor's remark.

cpd	canonical_smiles	gsp agonist	ClpP mod	Sfp PPTase inh	Menin-MLL FL inh	gsp antagonist	D2 ag	PINK1 expr mod
1	Cc1[nH]c(=O)[nH]c(=O)c1C=CC(=O)NC(CO)CS(=O)Cc1ccccc1 (centres undefined)	17%	-5.0%	nt	nt	nt	-5.7	0.5%
2	Cc1cc(C)c2cc(CN(CCN3CCCC3)C(=O)Nc3ccc(F)cc3)c(=O)[nH]c2c1	0%	-22%	9%	?	8%	0.7	0.7%
3	CCc1nc(SCC(=O)O)c(C#N)c2c1CCCC2	-4%[15.4 µM]	nt	7%	0.4	nt	1.3	0.4%
4	CCCCCCOC(=O)c1ccc(N)cc1	-4%	1.6%	5%	0.6	-17%	3.8	14%
5	COc1ccc(N2CCC(CNC(=S)Nc3c(C)cc(C)cc3C)C2)cc1 (centres undefined)	23%	-1.1%	?	0.9	-13%	-1.0	?
6	O=C(CCc1nc2ccccc2[nH]1)N1CCc2ccccc2C1	-12%	-7.2%	5%	-1.6	4%	-6.5	4.0%
7	COC(=O)CCC(=O)COc1ccccc1C#N	-17%	0.1%	9%	-1.3	12%	-0.4	1.4%[38.3 µM]
8	CCOc1ccc(-c2cc(N)n(S(=O)(=O)c3ccc(OC)cc3)n2)cc1	6%	-1.2%	14%	0.0	-13%	-4.2	4.5%
9	Cc1ccc([C@H]2C[C@@H](n3cc(-c4ccc(F)cc4)nn3)[C@H](O)CN2CC2CCCCC2)cc1	-1%	-0.9%	nt	nt	nt	1.6	15%
10	COc1cc2c(cc1NS(=O)(=O)N1CCCC1)oc1ccccc12	-2%	25µM*	-8%	-0.1	-12%	-2.2	7.5%[38.3 µM]
11	Cc1cccc(C(=O)OCC(=O)NCCCc2ccccc2)c1	7%[15.4 µM]	nt	5%	-0.4	8%	3.7	-1.3%
12	CCOC(=O)n1c(=O)n(Cc2ccccc2)c2ccccc21	0%	-6.3%	18%	1.9	-1%	-6.2	4.3%
13	COc1ccccc1-c1noc2c1C(=O)N(Cc1cn(-c3ccccc3)nn1)CC2	nt	0.5%	nt	nt	nt	4.8	0.8%
14	O=C(Nc1ccc(F)cc1)C1CCN(c2ncnc3c2nc2n3CCCCC2)CC1	19%	0.1%	-13%	nt	-16%	1.7	3.0%
15	COc1ccccc1OCCCCNC(C)(C)C	4%	-1.6%	0%	0.9	4%	0.7	-2.5%[38.3 µM]
16	CCN1CCN(C(=O)CCS(=O)(=O)c2cc3c(cc2Cl)NC(=O)CO3)CC1	-34%	-0.6%	12%	-1.8	9%	-2.9	1.6%
17	CC/C(=C/c1sc2ccccc2[n+]1CC)SC	-13%	2.1%	-3%	4.7	?	-5.3	1.2%
18	COc1cccc(/C=C2\SC(=S)N(NC(=O)c3ccncc3)C2=O)c1	-42%	-0.5%	21%	-0.5	-17%	8.3	1.7%
19	COc1ccc(NC(=O)Nc2cc(F)ccc2C)cc1	11%[15.4 µM]	-3.7%	-4%	1.3	4%	-1.7	2.4%
20	COc1ccc(S(=O)(=O)Nc2ccc3c(c2)CCC3)cc1	-5%[15.4 µM]	nt	4%	-2.4	-21%	-2.5	3.2%
21	O=C1C=C(NCc2ccco2)C2(CCCCC2)O1	?	-2.7%	13%	3.0	0%	-4.1	1.3%
22	CC(C)(C)[C@H]1C=C(C(=O)Nc2ccccc2)O[C@@H](OCCCCO)C1	-1%	1.6%	nt	nt	-6%	-1.3	1.0%
23	O=C(C(NS(=O)(=O)c1cccs1)c1ccccc1)N1CCN(c2ccccc2F)CC1 (centres undefined)	-27%	-0.4%	15%	2.4	-19%	-0.3	?
24	O=C(Nc1ncn[nH]1)c1ccc(Cl)c(S(=O)(=O)Nc2ccc(Cl)cc2)c1	-33%	32µM*	-1%	-4.7	-1%	1.1	0.1%
25	Nn1c(-c2ccccc2)nc2ccccc2c1=O	-23%	0.3%	13%	-0.1	14%	-3.5	1.9%
26	O=C(c1cc(Cl)cc(Cl)c1)N1CCC2CC1c1cc(N3CCCCC3)ccc12 (centres undefined)	-23%	-0.4%	nt	nt	nt	-10	7.8%
27	NC(=O)COc1ccc(C(=O)/C=C2/C(=O)Nc3ccccc32)cc1	-41%	nt	-6%	2.3	13%	-5.9	-1.1%
28	Nc1ncc(Br)cc1S(=O)(=O)NC1CCCCC1	?	-14%	13%	1.3	16%	4.7	1.6%
29	Cc1[nH]c(=O)[nH]c(=O)c1CSc1nnc(CCCCCNC(=O)OC(C)(C)C)o1	10%	-2.7%	17%	3.5	1%	-1.1	6.5%[38.3 µM]
30	Cc1cccc(CSc2ccc3nnc(-c4cccs4)n3n2)c1	-3%	-14%	20%	2.2	-24%	-4.0	-0.5%

Next compounds:
cpd	canonical_smiles	gsp agonist	ClpP mod	Sfp PPTase inh	Menin-MLL FL inh	gsp antagonist	D2 ag	PINK1 expr mod
31	CCOC(=O)c1ccc(NC(=S)N2CCCC(C(=O)OCC)C2)cc1 (centres undefined)	-21%[15.4 µM]	nt	-1%	6.7	3%	-4.1	0.1%
32	Cc1ccc(S(=O)(=O)NCCCCCC(=O)Nc2cccc(C)c2)cc1	5%	-1.1%	8%	3.0	-2%	1.7	-1.6%
33	CC(C)NC(=O)CN(Cc1ccccc1)S(=O)(=O)c1ccccc1	-37%[inhibitor]	0.1%	-3%	6.1	0%	1.5	2.4%[38.3 µM]
34	CSc1ccccc1C(=O)Nc1cccc([N+](=O)[O-])c1	6%[15.4 µM]	-21%	-16%	6.7	-12%	-4.0	2.8%
35	Cc1ccc(NC(=O)C2=C(C(=O)O)CCCC2)cc1Br	-12%[15.4 µM]	-0.2%	-2%	1.7	5%	1.4	0.6%
36	Cc1cc(C(=O)CSc2nc3ccccc3[nH]2)c(C)n1C	-8%	2.8%	-90%	-1.4	-2%	-3.1	1.4%
37	CC1=C(C(=O)N2CCOCC2)CC(CC(=O)NC(c2ccccc2)c2ccccc2)C(=O)N1CCC1=CCCCC1 (centres undefined)	nt	-1.1%	nt	nt	nt	-4.9	1.8%
38	CC(C)(C)c1ccc(OCC(O)CS(=O)(=O)c2ccccn2)cc1 (centres undefined)	3%	0.5%	4%	-0.8	5%	0.0	3.8%[38.3 µM]
39	CN(c1ccccc1)S(=O)(=O)c1cccc(C(=O)NNC(=O)c2ccncc2)c1	5%	-0.9%	nt	nt	9%	-1.2	4.0%
40	O=C(O)c1ccc2nc(-c3ccccc3)c(-c3ccccc3)nc2c1	-61%[inhibitor]	22µM*	26%&18%	-1.5	-18%	-3.0	0.2%
41	CC(C)c1ccc(NC(=O)C(c2ccccc2)N(C)C(=O)c2cnccn2)cc1 (centres undefined)	-10%[15.4 µM]	-0.6%	-3%	-4.2	7%	-2.4	1.6%
42	COc1ccc(NC(=O)CN(C)C(=O)c2cc(CN3C(=O)c4ccccc4C3=O)ccc2OC)cc1	-39%[inhibitor]	0.6%	nt	nt	-13%	-2.2	1.0%
43	O=C(c1c(F)cccc1F)N1CCCc2ccccc21	13%[15.4 µM]	-0.5%	16%	0.6	-6%	1.5	0.3%
44	CON1C(=O)C(=O)N(OC)C2CCCCC21 (centres undefined)	2%	-2.3%	7%	0.9	-1%	0.9	0.2%[38.3 µM]
45	Oc1ccc(O)c(Cc2nc3ccccc3s2)c1	-23%	nt	50µM*	16	3%	?	5.5%
46	O=C1N=C(N2CCOCC2)S/C1=C/c1cccs1	-5%	-7.6%	15%	0.8	1%	0.5	-0.7%[38.3 µM]
47	CCCN(CC(=O)Nc1ccc(C(N)=O)cc1)CC(=O)Nc1ccc(F)c(F)c1F	-2%	0.1%	-6%	-26	2%	-4.2	0.3%
48	Cc1cc(C(=O)OCC(=O)c2ccc(Br)s2)no1	35µM*	-1.1%	6%	12	26%	-2.6	21%[38.3 µM]
49	O=C(C1CCN(S(=O)(=O)c2cccs2)CC1)N(c1ccccn1)C1CCCCC1	-2%	nt	1%	0.8	-17%	-2.1	0.4%
50	Clc1nnc(NN=C2CCCC2)c2ccccc12	17%	nt	50µM*	0.9	-5%	-4.1	?
51	CS(=O)(=O)N(CC(=O)NCCC1=CCCCC1)C1CCCCC1	39%	0.3%	3%	-1.8	8%	9.7	1.9%
52	CCOc1ccc(C(=O)NCc2ccncc2)cc1OCC	-32%	1.1%	12%	-0.5	14%	-1.1	0.3%
53	CC(C)NC(=O)NC(=O)CSc1ccccc1F	-6%	0.7%	10%	1.4	1%	1.2	0.0%
54	Cc1ccc(C(=O)Nc2cccc(C(F)(F)F)c2)cc1Nc1ccccn1	14%	-11%	-2%	1.3	-19%	-1.5	0.5%
55	Cc1ccc(-c2csc3nnc(SCC(=O)N4CCN(Cc5ccccc5)CC4)n23)cc1	-38%[inhibitor]	-2.0%	-8%	0.6	-5%	-3.5	0.6%
56	O=C(O)CCn1cnc2ccccc2c1=O	0%	-1.6%	8%	1.7	2%	-3.4	-0.8%
57	C=CCS(=O)(=O)c1cccc2cccnc12	-15%[15.4 µM]	nt	5%	0.6	-4%	0.8	-1.0%
58	CC1(C(=O)NC2CCCC2)CCC(=O)N1Cc1ccccc1 (centres undefined)	14%	-1.1%	18%	3.3	7%	-2.3	-1.1%
59	O=C(Nc1ccc(NC(=O)c2cccs2)c(Cl)c1)c1ccco1	-50%[inhibitor]	nt	0%	1.5	-12%	3.4	-0.4%
60	CCN(CC)S(=O)(=O)c1ccc2oc(C(=O)NC3CCCc4ccccc43)c(C)c2c1 (centres undefined)	-9%	-1.6%	-16%	2.7	5%	0.2	3.3%[38.3 µM]
61	COc1ccc(C(=O)NC(=S)Nc2cccnc2)cc1OC	-5%[15.4 µM]	nt	-22%	0.6	-8%	-6.2	0.3%

Bioassay records (PubChem BioAssay)
